StopGo reporter – FMDV 2A StopGo reporter, luciferase signal; human cells with a luciferase reporter of 2A StopGo recoding; control for the full effect not named in the record; Potency, µM (titrated, usually from 57.9 µM), inactives show top-dose signal change, negative = less light; hit rate 1.2% among 410,000; AID 1159524; active = well fitted falling curve with a large enough effect; inconclusive = small, poorly fitted or top-dose-only effect; inactive = no such curve, though single readings can be large or run the other way; tested in HEK293T cells; further: on the % scale 0 is the no-effect control and ±100 the full control effect; nearly all actives have a fitted effect of over 45% in size; luciferase light after 4 h
RE007 growth inh – less growth of the S. pombe RE007 Vpr strain; S. pombe RE007 Vpr strain, BacTiter-Glo ATP luminescence, 24 h; control for the full effect not named in the record; Potency, µM (series often up to 92.2 µM), without a hit: at the highest dose activity change, negative = less growth; hit rate 0.21% among 360,000; active = well fitted falling curve with a large enough effect; inconclusive = small, poorly fitted or top-dose-only effect; inactive = no such curve, though single readings can be large or run the other way;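 further: on the % scale 0 is the no-effect control and ±100 the full control effect; nearly all actives have a fitted effect of over 50% in size; the assay follows cell death caused by Vpr and the record does not say whether a fall means rescue or toxicity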
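Fission yeast RE007 carrying one integrated HIV-1 vpr copy, seeded at OD 0.01 in PMG+AL medium with 23 nL pinned compound. Grown 24 h at 30 degrees; viability read by BacTiter-Glo luminescence after 5 min.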
Lassa entry inh – blocks Lassa virus binding to or entry into cells. Potency, µM (series often up to 37.9 µM), without a hit: at the top dose activity change, negative = inhibition, actives largely listed as inhibitors. Lassa virus pseudotype entry inhibition, cell reporter; control for the full effect not named in the record. hit rate 1.2% among 300,000; active means well fitted inhibition curve with a large enough effect; inconclusive means small, poorly fitted or top-dose-only effect, or effect the other way; inactive means flat fitted curve, though single readings scatter; tested in HEK293 cells; further: on the % scale 0 is the no-effect control and ±100 the full control effect; nearly all actives have a fitted effect of over 50% in size; luciferase read-out
Cruzain inh Det – blocks cruzain activity in presence of Triton detergent. hit rate 0.43% among 200,000. purified cruzain, Z-FR-AMC fluorescence, 0.01% Triton. Potency, µM, inactives show max response, negative = inhibition, usual class: inhibitors. P25779;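 further: plate controls were neutral wells for no effect and buffer without enzyme for full effect; nearly all actives have a fitted effect of over 40% in size; top concentration of the series not given in the record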
Target sequence (P25779 123-467 limits assumed): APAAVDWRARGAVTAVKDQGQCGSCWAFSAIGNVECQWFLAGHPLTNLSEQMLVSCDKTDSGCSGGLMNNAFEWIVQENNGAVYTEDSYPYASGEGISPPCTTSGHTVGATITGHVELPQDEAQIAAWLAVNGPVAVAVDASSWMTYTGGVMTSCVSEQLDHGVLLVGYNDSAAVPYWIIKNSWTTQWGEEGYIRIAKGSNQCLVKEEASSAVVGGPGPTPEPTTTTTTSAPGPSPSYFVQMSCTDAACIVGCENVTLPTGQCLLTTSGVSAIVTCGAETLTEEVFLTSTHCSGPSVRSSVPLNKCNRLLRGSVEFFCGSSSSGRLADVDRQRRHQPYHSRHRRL
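In this qHTS format, compounds are incubated with 1.5 nM cruzain for 15 min at room temperature before 2 uM Z-FR-AMC is added. Release of AMC is followed at 360/450 nm, and progress is taken as the 60 s fluorescence difference.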
Cruzain noTriton – cruzain (T. cruzi) inhibition without detergent | P25779 | purified cruzain, Z-FR-AMC fluorescence, no detergent | Potency, µM, for inactives: max response, negative = inhibition, most hits filed as inhibitors | hit rate 2.3% among 200,000 | AID 1476;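 further: plate controls were enzyme without inhibitor for no effect and buffer without enzyme for full effect; nearly all actives have a fitted effect of over 40% in size; top concentration of the series not given in the record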
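Detergent-free condition (0.00005% Triton X-100) in acetate buffer pH 5.5 with DTT. 1.5 nM enzyme and compound were pre-mixed 15 min, then 2 uM Z-FR-AMC substrate added; reaction progress from fluorescence change between first and third reads (60 s).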
MARV entry inh – Marburg virus entry inhibition. Marburg virus pseudotyped entry inhibition, cell reporter; control for the full effect not named in the record; about a third of the inactives were read at about 46 µM. Potency, µM (doses to about 37.8 µM), inactives show at the top dose activity change, negative = inhibition, actives largely listed as inhibitors. AID 540276. hit rate 1.8% among 300,000; active = well fitted inhibition curve with a large enough effect; inconclusive = small, poorly fitted or top-dose-only effect, or effect the other way; inactive = flat fitted curve, though single readings scatter; tested in HEK293 cells; about a fifth of its hits are not listed in these tables; further: on the % scale 0 is the no-effect control and ±100 the full control effect; luciferase read-out
SARS PLpro yeast – inhibitors of SARS-CoV papain-like protease in yeast; AID 485353; S. cerevisiae expressing SARS-CoV PLpro, growth rescue; control for the full effect not named in the record; hit rate 0.19% among 330,000; Potency, µM (highest dose often 32.9 µM), without a hit: top-dose activity, positive = growth rescue; active means well fitted rising curve with a large enough effect; inconclusive means small, poorly fitted or top-dose-only effect; inactive means no such curve, though single readings can be large or run the other way; further: 0% is about no effect; nearly all actives have a fitted effect of over 55% in size; growth read by luminescence after 48 h
NS1 inh – influenza NS1 inhibition | S. cerevisiae slowed by influenza A NS1, growth recovery by OD600 | Potency, µM (highest dose often 46.1 µM), inactives show at the top dose activity, positive = more growth | hit rate 0.4% among 270,000 | AID 2326; active means well fitted rising curve with a large enough effect; inconclusive means small, poorly fitted or top-dose-only effect; inactive means no such curve, though single readings can be large or run the other way; further: nearly all actives have a fitted effect of over 50% in size
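S. cerevisiae expressing influenza A NS1, grown in glucose, washed, then diluted 1:100 into pH 6.0 -URA galactose medium with 23 nl compound. Growth recovery read as OD600; NS1-free strain serves as control.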
Starred values were filed as active, the others as inactive; ? = inconclusive; . = not tested or not shown; & = joins results of further samples; [ ] = dose if it differs, or a comment. Unless noted, the call rests on the fitted dose curve; in most records, active means well fitted curve in the direction sought with a large enough effect; inconclusive means small, poorly fitted or top-dose-only effect, or another doubt; inactive means no such curve, though single readings can be large; an effect the other way counts as inactive or inconclusive. Potency means the concentration at half of the fitted maximal effect.

SMILES	StopGo reporter	RE007 growth inh	Lassa entry inh	Cruzain inh Det	Cruzain noTriton	MARV entry inh	SARS PLpro yeast	NS1 inh
CCOC(=O)C1CCN(C(=O)Nc2ccc3nccnc3c2)CC1	1%	-6%	5%	-5.4%	-4%	9%[46.1 µM]	-2%	8%
Cc1ccccc1Nc1nc(N)nc(CSc2nnc(-c3ccccc3)n2C)n1	-10%	6%	-19%	2.2%	3%	2%	-2%	1%
O=C(CCCC(=O)N(CC(=O)NC1CCCC1)Cc1ccc2c(c1)OCO2)Nc1ccccn1	-23%	4%	-1%	0.1%	9%	-15%&-15%	4%	-5%
O=C(c1ccco1)N1N=C(c2ccc(Br)cc2)CC1(O)C(F)(F)F (stereo not given)	?	4%	?	.	.	10µM*	3%	-3%
O=C(NC1CCCCC1)c1ccccc1C(F)(F)F	18%	-11%	-5%[46.1 µM]	.	.	5%[46.1 µM]	-1%	3%
CCOC(=O)c1c(C2CC2)csc1NC(=O)COC(=O)c1ccc[n+]([O-])c1	0%	-4%	6%	-2.2%	?	17%	-5%	-12%
CC(C)Cn1cnc2c(SCc3ccccc3Cl)nc(N)nc21	-17%	-1%	?	.	.	?	.	.
CCC1CCCCN1CCCNC(=O)c1cn(C)c2ccc(S(=O)(=O)N(C)C3CCCCC3)cc2c1=O (stereo not given)	1%&20%	-3%	?	-1.5%	-9%	-4%&11%[46.1 µM]	-1%	-4%
CC(C)C1N=C2c3ccccc3N=C(SCC(=O)NCc3ccccc3Cl)N2C1=O (stereo not given)	35%[activator]	.	-15%[46.1 µM]	-6.8%	-22%	.	.	.
CC(=O)c1ccc(NC(=O)C(C)OC(=O)C2CCN(c3ccc(C(F)(F)F)cn3)CC2)cc1 (stereo not given)	?	-3%	-3%	.	.	-2%	-5%	.
CC(CC(=O)NCc1ccc(Cl)cc1Cl)CC1=NS(=O)(=O)c2ccccc2N1 (stereo not given)	-19%	.	-27%[46.1 µM]	-5.6%	-1%	.	.	.
COc1cc(/C=C2\SC(=O)N(c3ccc(O)cc3)C2=O)cc(OC)c1OC	-22%	?	4%	.	.	12%[46.1 µM]	0%	-5%
CC1=C(c2ccc(C)c(C)c2)S(=O)(=O)N=C1N1CCC(C(=O)NCc2ccc(Cl)cc2)CC1	-19%	.	.	-3.7%	14%	?	.	.
Cn1cccc1C(=O)NC(=O)COC(=O)CNC(=O)CNC(=O)c1ccc(Cl)cc1Cl	-18%	-18%	-12%[46.1 µM]	.	.	2%[46.1 µM]	2%	.
CN(CCCOc1ccccc1F)Cc1ccccc1	-1%	-8%	.	.	.	.	1%	-19%
CCN1CCN(c2nnc(-c3ccccc3)c3ccccc23)CC1	-20%	-7%	.	.	.	.	-2%	-2%
Cc1ccc(CNC(=O)CSc2ncc(S(=O)(=O)c3ccc(C)c(Cl)c3)c(=O)[nH]2)cc1	-11%	.	21%[46.1 µM]	-12%	?	.	.	.
COc1ccccc1CNC(=O)Cn1c(=O)oc2cc(S(=O)(=O)N3CCCC3)ccc21	-22%&0%	-12%	-23%[46.1 µM]	-2.0%	13%	1%[46.1 µM]	4%	-12%
CCOc1ccc(C(=O)COC(=O)Cc2n[nH]c(=O)c3ccccc23)cc1	-18%	57%	?	.	.	?	0%	.
COc1ccccc1CC(=O)NNC(=O)c1ccc(C(C)(C)C)cc1	6%	-9%	-30%	.	.	-4%	-4%	7%

The closing 2 entries of the part above come first, to join the parts.
SMILES	StopGo reporter	RE007 growth inh	Lassa entry inh	Cruzain inh Det	Cruzain noTriton	MARV entry inh	SARS PLpro yeast	NS1 inh
CCOc1ccc(C(=O)COC(=O)Cc2n[nH]c(=O)c3ccccc23)cc1	-18%	57%	?	.	.	?	0%	.
COc1ccccc1CC(=O)NNC(=O)c1ccc(C(C)(C)C)cc1	6%	-9%	-30%	.	.	-4%	-4%	7%
O=C(NCCc1ccc2c(c1)OCCO2)c1ccccn1	-13%	-3%	?	.	.	-12%[46.1 µM]	-1%	-10%
Cc1ccc(C(=O)N(CCC2=CCCCC2)c2c(N)n(Cc3ccccc3)c(=O)[nH]c2=O)o1	?	-1%	?	.	.	?	7%	.
CC12CN3CC(C)(CN(C1)C3c1ccc(Br)cc1)C2=O (stereo not given)	-19%	5%	0%	3.2%	4%	0%	4%	-3%
O=C(CSc1ccccc1)N1CCCC(N2CCN(c3ccc(F)cc3)CC2)C1 (stereo not given)	-17%	-3%	-29%[46.1 µM]	.	.	?	1%	-45%
O=C(NCC1CCCO1)C1CC(c2ccc(Cl)c(Cl)c2)=NO1 (stereo not given)	.	-7%	15%	-0.2%	-6%	-18%	-3%	-13%
CN1C(=O)/C(=C\c2ccco2)N=C1c1ccc(Cl)cc1Cl	34%[activator]	?	?	.	.	4%[46.1 µM]	-2%	8%
COc1ccc(CCNC(=O)CCn2c(=O)c3ccccc3n(Cc3ccc(Cl)cc3)c2=O)cc1OC	?	.	6%[46.1 µM]	2.3%	-2%	1%[46.1 µM]	.	.
COc1ccc(NC(=O)NCCCN2CCC(Cc3ccccc3)CC2)cc1	0%	7%	.	.	.	.	0%	-3%
O=C(N/N=C/c1cccc2nccnc12)c1ccncc1	18%	-10%	0%[46.1 µM]	.	.	-1%[46.1 µM]	1%	6%
CC1(N2CCCCC2)C(=O)c2ccccc2C1=O	-1%	2%	-5%	7.6%	5%	-9%	-2%	12%
COc1ccc(Cl)cc1NC(=S)N1CCN(c2ccccn2)CC1	-9%	-13%	-19%	0.8%	-3%	?	2%	-5%
COc1ccc(OC)c(CNC(=O)CSc2c3c(nc4cc(Cl)ccc24)CCCC3)c1	?	.	-5%[46.1 µM]	-9.0%	?	?	.	.
COc1ccc(Cl)cc1NC(=O)c1ccc2c(c1)CCCN2S(C)(=O)=O	-22%	.	3%[46.1 µM]	-6.2%	27%	20%[46.1 µM]	.	.
CC(c1ccccc1)C(OC(=O)c1cccc([N+](=O)[O-])c1C(=O)O)c1ccccc1 (stereo not given)	-9%	-10%	12%[46.1 µM]	.	.	-1%[46.1 µM]	.	.
COc1ccc(Cl)cc1NC(=O)CN(C)Cc1ccc(OC)c(OC)c1	?	-14%	?	.	.	-22%[46.1 µM]	-4%	-4%
Cc1ccc(C(=O)Nc2cc(-c3nc4cc(Cl)ccc4o3)ccc2C)c(C)c1	?	.	3%[46.1 µM]	0.2%	-5%	-22%[46.1 µM]	.	.
Cc1ccc(S(=O)(=O)Nc2ccc(Cl)cc2C(=O)c2ccc(F)cc2)cc1	-22%	10%	27%	-3.3%	-1%	?	-40%	-1%
COc1ccc(-c2cn3c(n2)sc2cc(C(=O)Nc4c(C)cccc4C)ccc23)cc1	-17%	.	-15%[46.1 µM]	-1.0%	-2%	.	.	.
Cn1c(=O)[nH]c(=O)c2c1nc(N1CCNCC1)n2Cc1ccccc1Cl	2%	9%	.	.	.	.	1%	4%
O=C(N/N=C/c1cnc(N2CCCCC2)s1)c1ccc(Cl)cc1	-21%	4%	?	.	.	?	0%	-4%
CC1Cc2nc(SCC(=O)Nc3ccccc3F)n(C)c(=O)c2S1 (stereo not given)	0%	14%	-1%	-7.3%	1%	-2%	-11%	-42%
Cc1cccc(CCNC(=O)Cc2ccc(NC3=NC4CS(=O)(=O)CC4S3)cc2)c1 (stereo not given)	-1%	-10%	.	.	.	.	-7%	2%
COC(=O)CNC(=O)c1cccc(F)c1	3%	6%	-10%	2.2%	-5%	2%	4%	2%
Cc1ccsc1/C=C(/C#N)C(=O)NCc1ccccc1	37%[activator]	-5%	1%	-1.0%	-3%	-2%	-7%	5%
Cc1cc(C)c(C)c(S(=O)(=O)N2CCN(C(=O)CCC(=O)N3CCOCC3)CC2)c1C	-10%	-4%	.	.	.	.	1%	-31%
COCC(=O)Oc1c(S(=O)(=O)c2ccc(C)cc2)c(C)nn1-c1ccccc1	1%	-1%	-2%	5.1%	4%	-1%	2%	3%
O=C(COC(=O)C1=COCCO1)Nc1ccc(OC(F)F)cc1	34%[activator]	3%	.	.	.	3%[46.1 µM]	1%	.
CCOC(=O)c1c(NC(=O)c2cc3ccccc3c(=O)o2)sc2c1CCC(C)C2 (stereo not given)	-23%	.	?	0.3%	15%	27%[46.1 µM]	.	.
CCOc1ccc(C2c3[nH]c4ccccc4c3CCN2C(=O)CCc2ccccc2)cc1 (stereo not given)	2%	.	?	1.8%	10%	.	.	.
CN(C)S(=O)(=O)c1ccc(Cl)c(NC(=O)COC(=O)CC(NC(N)=O)c2ccc(Cl)cc2)c1 (stereo not given)	-24%	-3%	.	.	.	.	0%	-4%
O=C(CC(c1ccccc1)c1ccccc1)OCn1nnc2ccccc2c1=O	?	-4%	0%	-12%	-18%	-7%	6%	-11%
CCC1CCCCN1CCCNC(=O)Cn1c2ccccc2c2nc(=O)cc(C)n21 (stereo not given)	-6%	-11%	.	.	.	.	5%	-6%
NC(=S)c1cc2cc(Cl)ccc2oc1=O	-15%	-1%	-22%	.	.	-1%[46.1 µM]	3%	-3%
O=C(NCCc1ccccc1)c1ccncc1	.	.	.	3.9%	-1%	1%	?	25%
CCc1nn(CC(=O)NCCCN2CCc3ccccc3C2)c(=O)c2cc3sccc3n12	-25%	-17%	2%	-7.2%	-9%	-33%	9%	7%
Cc1nn(-c2ccccc2)c(C)c1C(=O)OC(C)C(=O)NC1CCCCC1 (stereo not given)	?	-13%	5µM*	.	.	?	-2%	.
COCCNC(=O)C(c1ccc(Cl)cc1)N(CCOC)C(=O)CCC(=O)Nc1ccccn1 (stereo not given)	-11%	?	-5%	.	.	7%	0%	2%
CCOC(=O)c1sc(NC(=O)c2ccc3ncsc3c2)nc1C	51%[activator]	-4%	.	2.8%	11%	.	-4%	-22%
Cc1cccc(NCc2nnc(-c3ccccc3)o2)c1C	-10%	-11%	?	.	.	?	-2%	.
O=C(COc1ccccc1)Nc1nc2cc3c(cc2s1)OCCO3	27%	-7%	.	.	.	.	3%	6%
Cc1cccc(C(=O)Nc2ccccc2C(=O)OCC(=O)Nc2ccc(C#N)cc2)c1	-8%	.	3%	-5.2%	32µM*	?	3%	6%
